T cruzi inh = T. cruzi replication inhibition; T. cruzi beta-gal in NIH3T3, luminescence, 90 h; inhibition, % (test concentration not listed); 300,000 compounds, 1.4% hits;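 active = mean inhibition across valid replicates above about 55%, limit read from the data; inconclusive = mean below that limit but half or more replicates reach it; inactive = mean below it, under half of replicates reach it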;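 note: signal also drops with host cell toxicity which is not excluded here; 0% = plate median of DMSO wells and 100% = zero luminescence signal; higher percent means less beta-gal luminescence so fewer parasites; stock transfer was 50 nL into about 50 µL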
FGF22 binding = FGF22 (human) thermal shift binding. Q9HCT0. recombinant FGF22 thermal shift, SYPRO orange fluorescence; percent of sucrose octasulfate shift, DMSO zero. calls only at 9.99 µM. 340,000 compounds, 1.5% hits. AID 651658;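 active = melting point raised past a set limit in the mean and every replicate; inconclusive = no clear call; three in four hits are not shown here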
Target sequence (Q9HCT0 whole entry, looked up): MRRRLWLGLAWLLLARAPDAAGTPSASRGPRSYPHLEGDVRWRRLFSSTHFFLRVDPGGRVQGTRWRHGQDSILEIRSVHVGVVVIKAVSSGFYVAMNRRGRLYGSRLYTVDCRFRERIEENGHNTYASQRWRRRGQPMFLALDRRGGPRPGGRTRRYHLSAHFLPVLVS
UCH37 inh = inhibitors of human deubiquitinating enzyme UCH37; inhibition, % (concentration not given with the values); purified proteasome/UCH37, Ub-AMC cleavage fluorescence; 330,000 compounds, 0.33% hits; AID 588478;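 active = mean of two replicates above 20%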;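 note: 0% = compound-free wells with enzyme and 100% = wells lacking proteasome; stock transfer was 100 nL into about 20 µL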
Target sequence (Q9Y5K5 whole entry, looked up): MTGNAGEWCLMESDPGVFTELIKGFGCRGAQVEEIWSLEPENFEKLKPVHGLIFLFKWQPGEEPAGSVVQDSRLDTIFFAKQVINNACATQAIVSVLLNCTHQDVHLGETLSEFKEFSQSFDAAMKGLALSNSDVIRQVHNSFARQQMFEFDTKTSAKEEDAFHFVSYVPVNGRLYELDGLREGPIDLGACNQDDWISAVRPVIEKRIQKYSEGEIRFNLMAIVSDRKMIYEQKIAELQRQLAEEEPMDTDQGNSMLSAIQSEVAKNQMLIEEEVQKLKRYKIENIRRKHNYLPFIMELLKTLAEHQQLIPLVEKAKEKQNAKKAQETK
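Schedule: 30 min plus 25 min, room temperature / Material: human UCH37 within purified proteasomes / Technique: AMC fluorescence intensity at 355/460 nm / Buffer or medium: pH 7.4 Tris-HCl (50 mM) with ovalbumin, ATP-MgCl2, DTT / Controls: wells without proteasome as full block, compound-free enzyme plus substrate as uninhibited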
Ecoli growth = inhibitors of Escherichia coli growth; OD600, 23 h; hits give low values; OD600 absorbance (no concentration beside the values); 330,000 compounds, 0.21% hits; AID 1053175;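 active = OD600 absorbance below the run mean of sample wells minus 3.6 SD, in any replicate, cut at about 0.56 in these data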;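 note: stock transfer was 300 nL into about 60 µL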
Bfl-1 A1 inh = inhibitors of the anti-apoptotic protein A1, read as caspase activation | MEF A1-2A-BIM cells, Caspase-Glo 3/7 luminescence, 3 h; percent of clofoctol response, vehicle zero | caspase activation, % (no concentration beside the values) | 330,000 compounds, 0.066% hits | AID 2462;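 active = over half of replicate activation scores above 10%, or exactly half above 10 with the replicate mean above 10; inconclusive = replicate mean below 10 yet half the replicates above 10; inactive = over half of replicates below 10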;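 note: wells of about 30 µL received 50 nL stock; many hits fall short of the cut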
Beta cell apopt = blocks beta cell apoptosis; protection from apoptosis, % (test concentration not listed); 300,000 compounds, 0.8% hits; AID 435005; INS-1E cytokine-induced death, ATP luminescence, 48 h; percent of positive-control rescue, neutral wells zero;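 active = all replicates at 75% or more, or half of them and the mean; inconclusive = half reach 75% but not the mean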;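 note: 0% = cytokine-treated negative control wells and 100% = positive control rescue; higher means more ATP so stronger rescue from cytokine killing; wells of about 40 µL received 100 nL stock; the first replicate is given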
rRNA inh HTS = inhibitors of bacterial rRNA selective over humanized ribosomes; E. coli WT GFP vs humanized-ribosome RFP mutants, fluorescence, 24 h; hits give low values; DMSO median 0, no signal -100; 350,000 compounds, 1.6% hits; GFP signal change (wild-type ribosome), % (concentration not given with the values);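 active = significant combined selectivity score with lowered wild-type GFP, culture density cut under 30%, mutant RFP and density less affected; inactive = any of these conditions unmet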; note: one replicate is shown; some compounds called inactive have numbers as strong as hits
AF4-AF9 inh = inhibitors of human MLL-AF4/AF9 interaction. AlphaScreen, biotin-AF4 peptide binding to FLAG-AF9. inhibition, % at 10 µM. 350,000 compounds, 0.47% hits. AID 651704;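 active = every replicate reaching a set inhibition limit, whatever the replicate mean, cut at about 25% in these data; inconclusive = mean inhibition reaches that limit but some replicates miss it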;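 note: 0% = plate neutral control median and 100% = total signal loss; the record names both 10 and 1 µM as test concentration; the first replicate is given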
Target sequence (P42568 whole entry, looked up): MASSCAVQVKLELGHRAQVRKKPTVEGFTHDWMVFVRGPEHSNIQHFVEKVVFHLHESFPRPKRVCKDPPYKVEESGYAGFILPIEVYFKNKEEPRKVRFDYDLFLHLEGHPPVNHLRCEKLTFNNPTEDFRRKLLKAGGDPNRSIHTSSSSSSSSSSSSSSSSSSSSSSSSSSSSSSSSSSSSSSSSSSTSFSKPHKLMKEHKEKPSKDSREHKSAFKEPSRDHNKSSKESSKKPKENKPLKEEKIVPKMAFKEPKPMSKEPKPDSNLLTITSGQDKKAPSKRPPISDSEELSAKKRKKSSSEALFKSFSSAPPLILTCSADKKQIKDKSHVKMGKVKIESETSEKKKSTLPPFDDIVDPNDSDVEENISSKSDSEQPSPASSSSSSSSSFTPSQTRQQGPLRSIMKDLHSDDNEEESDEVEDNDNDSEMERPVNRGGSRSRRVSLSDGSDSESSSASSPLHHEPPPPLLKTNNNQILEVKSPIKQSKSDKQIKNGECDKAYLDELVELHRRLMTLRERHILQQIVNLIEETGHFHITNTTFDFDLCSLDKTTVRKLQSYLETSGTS
rRNA inh HTS OD600 = second read-out of rRNA inh HTS, no call of its own (marks repeat the call); OD600 change, %; measured here: OD600 growth;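 optical density of the mix in the first replicate; 0 = DMSO median and -100 = no signal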
rRNA inh HTS RFP = second read-out of rRNA inh HTS, no call of its own (marks repeat the call); RFP signal change, %; measured here: RFP humanized mutant strains;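 first replicate; 0 = DMSO median and -100 = no signal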
Starred values were filed as active, the others as inactive; i = inactive; ? = inconclusive; nt = not tested or not shown. These rows are one share of the data; rates above refer to the full screens.

SMILES | T cruzi inh | FGF22 binding | UCH37 inh | Ecoli growth | Bfl-1 A1 inh | Beta cell apopt | rRNA inh HTS | rRNA inh HTS OD600 | rRNA inh HTS RFP | AF4-AF9 inh
CN=C(c1ccc([N+](=O)[O-])cc1)N1CCCCC1 | 9 | i | 5.4 | 0.69 | -1.4 | -1 | 18 | 0 | -5.3 | -1.6
COc1ccc(CN2CCCC(C(=O)c3ccc4c(c3)OCO4)C2)c(F)c1 (stereo not given) | 11 | i | -0.3 | 0.71 | 0.7 | -3 | -3 | -9 | 3.2 | -2.0
COc1ccc(C=O)c(OC)c1 | -14 | i | -1.0 | 0.77 | -0.1 | 1 | 17 | 3 | 1.1 | -2.8
COC(=O)C1C(c2ccccc2)C(C(=O)O)C1c1ccccc1 (stereo not given) | -9 | i | 5.1 | 0.66 | 0.6 | -12 | 4 | 2 | -2.5 | -1.2
Cc1nnc(SCC(=O)Nc2cccnc2Cl)s1 | -19 | i | -0.2 | 0.63 | 0.1 | -5 | 24 | 14 | 1.3 | -0.5
O=C(NCCc1ccccn1)c1ccc(COc2ccccc2)o1 | -8 | nt | 3.8 | 0.7 | 0.9 | -3 | nt | nt | nt | nt
Cc1cc(C(=O)N2CCCC(N3CCN(c4cccc(C(F)(F)F)c4)CC3)C2)no1 (stereo not given) | -10 | i | 0.0 | 0.69 | 1.2 | -1 | -4 | -4 | 2.8 | 0.4
Cn1nc(C(=O)Nc2cc(Cl)ccc2N2CCCC2)c2ccccc2c1=O | nt | i | 3.4 | 0.67 | -0.8 | 18 | 2 | 6 | 2.8 | 14
Cc1nc(SCc2ccc(Cl)c(Cl)c2)ncc1C(=O)O | -2 | i | 1.8 | 0.67 | -0.2 | 3 | -36 | -44 | -11 | -2.6
Cc1nn2c(=O)cc(CSCC(=O)Nc3ccccc3Cl)nc2s1 | -10 | i | 3.0 | 0.69 | nt | nt | 8 | 12 | -0.7 | -2.8

Some of these compounds in order of the Ecoli growth value, high to low.
smiles	FGF22 binding	UCH37 inh	Ecoli growth	rRNA inh HTS	rRNA inh HTS OD600	rRNA inh HTS RFP	AF4-AF9 inh
Cc1nn2c(=O)cc(CSCC(=O)Nc3ccccc3Cl)nc2s1	i	3.0	0.69	8	12	-0.7	-2.8
COC(=O)C1C(c2ccccc2)C(C(=O)O)C1c1ccccc1 (stereo not given)	i	5.1	0.66	4	2	-2.5	-1.2
Cc1nnc(SCC(=O)Nc2cccnc2Cl)s1	i	-0.2	0.63	24	14	1.3	-0.5

Next compounds follow:
SMILES | T cruzi inh | FGF22 binding | UCH37 inh | Ecoli growth | Bfl-1 A1 inh | Beta cell apopt | rRNA inh HTS | rRNA inh HTS OD600 | rRNA inh HTS RFP | AF4-AF9 inh
COc1cc(-c2ccc(Nc3ccccc3C(=O)O)c(OC)c2)ccc1Nc1ccccc1C(=O)O | nt | i | 25* | 0.66 | nt | nt | -54 | -69 | -20 | 9.0
CCOc1cc(N2CCOCC2)c(OCC)cc1NC(=O)c1ccc(C)s1 | 8 | i | 3.0 | 0.61 | 1.6 | nt | -7 | -14 | -4.2 | 13
CCn1c(=O)n(CC)c2cc(N)ccc21 | 8 | i | 1.7 | 0.62 | 0.1 | -1 | -6 | -7 | -1.9 | 3.3
CN(C)C(=O)CC12CC3CC(C1)CC(CC(=O)N(C)C)(C3)C2 | 1 | i | 1.8 | 0.7 | -0.5 | -5 | 4 | 2 | -2.0 | -0.3
CCCCn1c(N)c(N(CC(C)C)C(=O)c2ccc(S(=O)(=O)N(CC)c3ccccc3)cc2)c(=O)[nH]c1=O | ? | i | 0.2 | 0.71 | -0.4 | -1 | 6 | 2 | -1.2 | -1.0
O=[N+]([O-])c1ccc(S(=O)(=O)N/N=C/c2ccco2)cc1 | -9 | i | nt | nt | -0.5 | -4 | 9 | 14 | 5.5 | 0.7
CCCC(=O)Nc1c2c(nn1-c1cccc(C)c1C)CS(=O)(=O)C2 | 3 | i | 0.7 | 0.68 | 1.6 | -6 | 8 | 5 | -0.4 | -2.3
Cc1c(OC(C)C(=O)NC2CC(C)(C)NC(C)(C)C2)ccc2c3c(c(=O)oc12)CCC3 (stereo not given) | 3 | i | -15 | 0.65 | -0.1 | 1 | 2 | 12 | 0.4 | -1.0
Cc1cccc(NC(=S)N(C)C)c1C | -9 | i | 0.8 | 0.71 | 0.4 | 0 | 8 | 3 | -1.8 | -3.1
COCCn1nnnc1C(c1ccc(OC)cc1)N1CCN(c2ccccc2F)CC1 (stereo not given) | -5 | nt | 3.8 | 0.75 | 0.1 | -4 | nt | nt | nt | nt
COCCn1c(SCC(=O)NCc2ccc3c(c2)OCO3)nnc1-c1c[nH]c2ccccc12 | -26 | i | 2.1 | 0.79 | 0.2 | -1 | -5 | -6 | -0.4 | -4.9
CC(=O)c1c(C)[nH]c(C(=O)Nc2cccnc2)c1C | 26 | nt | 5.2 | 0.63 | -0.9 | 0 | nt | nt | nt | nt
Cc1nn(C)c(C)c1S(=O)(=O)N1CCC(C(=O)NCC2COc3ccccc3O2)CC1 (stereo not given) | -3 | i | 0.2 | 0.75 | -0.6 | -3 | 7 | 5 | -1.0 | 0.7
Cc1ccc2ncnc(NCCCCCC(=O)O)c2c1 | 1 | i | 0.9 | 0.75 | -0.7 | nt | 18 | 14 | 0.2 | -2.2
COC(=O)c1ccc(C23CC4(C2)[C@H](CN(Cc2ccc(-c5ccccc5)cc2)[C@@H]4c2ccccc2)C3c2ccc(C(F)(F)F)cc2)cc1 (stereo not given in full) | -8 | i | 0.9 | nt | -0.7 | 2 | 2 | 8 | -0.8 | 1.7
COc1c2n(C)ccc3c-2n(c(=O)c1=O)c1ccccc31 | -11 | i | 2.4 | 0.65 | 1.2 | -8 | nt | nt | nt | -0.7
C=CC(=O)Nc1ccc(Br)cc1 | -11 | nt | 1.2 | 0.71 | 0.0 | -2 | nt | nt | nt | nt
COC(=O)c1ccc(C2Nc3cccc4cccc(c34)N2)cc1 | 67* | i | 5.4 | 0.69 | 0.3 | 1 | 6 | 4 | -3.8 | 8.8
CC(C)CCCC(C)NC(=O)c1cc(S(=O)(=O)N2CCCCC2)ccc1N1CCOCC1 (stereo not given) | nt | i | 3.0 | 0.68 | nt | nt | nt | nt | nt | -5.0
COc1ccc([C@H]2CC(=O)C=C(c3cccc(F)c3OC)C2)cc1 | nt | i | -0.2 | nt | -0.4 | -3 | -27 | -38 | -12 | 2.3

Only Bfl-1 A1 inh, for 4 of the compounds above:
molecule	Bfl-1 A1 inh
COc1ccc([C@H]2CC(=O)C=C(c3cccc(F)c3OC)C2)cc1	-0.4
CC(=O)c1c(C)[nH]c(C(=O)Nc2cccnc2)c1C	-0.9
COC(=O)c1ccc(C23CC4(C2)[C@H](CN(Cc2ccc(-c5ccccc5)cc2)[C@@H]4c2ccccc2)C3c2ccc(C(F)(F)F)cc2)cc1 (stereo not given in full)	-0.7
C=CC(=O)Nc1ccc(Br)cc1	0.0

(further entries)
SMILES | T cruzi inh | FGF22 binding | UCH37 inh | Ecoli growth | Bfl-1 A1 inh | Beta cell apopt | rRNA inh HTS | rRNA inh HTS OD600 | rRNA inh HTS RFP | AF4-AF9 inh
CC1CN=C(NC2CCCCC2C)S1 (stereo not given) | 12 | nt | -0.7 | 0.72 | 1.2 | -17 | nt | nt | nt | nt
COc1ccc(N2C(=O)CCC(C(=O)O)C2c2ccccc2OC)cc1 (stereo not given) | 6 | i | 4.3 | 0.7 | 1.2 | -2 | 16 | -1 | -1.1 | 18
COc1cc(OC)c(S(=O)(=O)N2CCN(C(=O)c3ccccc3F)CC2)cc1NC(C)=O | -4 | i | 0.1 | 0.67 | 1.2 | -1 | 7 | -3 | -2.5 | 4.3
CC(=O)c1ccc(N(CC(=O)NC2CCCC2)C(=O)c2ccc(C)s2)cc1 | 12 | i | -0.8 | 0.66 | 0.7 | 2 | -5 | 0 | -4.5 | 2.6
CCc1c(C)c2ccc(OCC(=O)N(C)C)c(C)c2oc1=O | 4 | nt | -145 | 0.72 | 0.9 | -1 | nt | nt | nt | nt
Cc1ccccc1C(=O)N1CCN(c2ccc(NC(=O)c3ccco3)cc2)CC1 | 6 | i | -0.2 | 0.64 | 0.8 | -7 | 1 | 2 | -0.9 | -0.4
COc1ccc(C(=O)N2CCN(c3ccc(NC(=O)c4ccco4)cc3)CC2)cc1 | -2 | i | 5.5 | 0.7 | -0.6 | nt | 8 | 14 | 5.4 | 2.9
CCOC(=O)C(NC(=O)CC)(Nc1ccccc1)C(F)(F)F (stereo not given) | -6 | nt | 0.6 | 0.69 | 0.6 | -9 | nt | nt | nt | nt
Cc1ccc(S(=O)(=O)Cc2ccc(C(=O)N3CCC(C(N)=O)CC3)o2)cc1 | 1 | i | 1.9 | 0.66 | 0.2 | 1 | 1 | 8 | -1.0 | 1.7
CC(C)OC(=O)Cn1cc(C#N)c2ccccc21 | -4 | nt | -13 | 0.7 | 0.5 | -1 | 1 | -2 | 0.2 | -3.3
CCCCOCCCNC(=O)CN1C(=O)c2ccccc2C1=O | 1 | i | 3.6 | 0.68 | 0.5 | -6 | 7 | 10 | -0.1 | -1.9
CCOc1ccc(N(CC(=O)N2CCN(c3ccccc3OC)CC2)S(=O)(=O)c2ccc(F)cc2)cc1 | 30 | i | -0.7 | 0.73 | 0.4 | -1 | -1 | -7 | 1.4 | 1.1
O=C(CN1CCN(C(=O)c2ccc(-c3nc4ccccc4s3)o2)CC1)Nc1ccccc1Cl | nt | i | -15 | 0.69 | nt | nt | 1 | 9 | 2.9 | 15
CCc1nnc(NC(=O)CSc2nnc(-c3ccc(S(=O)(=O)N(CC)CC)cc3)n2CC)s1 | -2 | nt | -1.6 | 0.71 | 0.7 | 2 | 1 | 16 | -1.6 | nt
O=c1cc(N2CCN(Cc3ccccc3)CC2)[nH]c(=O)n1Cc1ccc(F)cc1 | 9 | nt | 0.8 | 0.72 | 0.4 | -2 | nt | nt | nt | nt
COCCCNC(=O)Cn1c(=O)n(CCCCCC(=O)NCc2ccc3c(c2)OCO3)c(=O)c2sccc21 | 0 | i | 0.5 | 0.67 | 0.2 | -1 | 5 | 11 | 5.2 | -0.5
O=C(NCc1ccccc1CN1CCCC1)c1cccc(N2CCCC2=O)c1 | nt | i | 2.8 | 0.68 | -0.2 | -2 | nt | nt | nt | 1.9
COc1ccc(S(=O)(=O)N/N=C(/C)c2ccncc2)c(OC)c1 | -9 | i | nt | nt | 0.1 | -5 | 3 | 11 | -3.1 | -1.9
CN(CC(=O)O)c1ccc(S(=O)(=O)N2CCOCC2)cc1[N+](=O)[O-] | -10 | nt | 5.9 | 0.66 | 0.1 | -3 | 4 | 4 | 0.1 | -0.9
Cc1ccc(C(=O)Nc2nc(=O)n(C(=O)CC(C)C)s2)cc1 | -8 | i | 3.9 | 0.65 | -0.5 | -2 | -6 | -3 | -7.8 | -7.8
Clc1ccc(SCc2csc(N3CCOCC3)n2)cc1 | -6 | i | 5.4 | 0.68 | 1.0 | -6 | -28 | -29 | -4.3 | 2.4
